Vaccinia Venus: qHTS for Stage-Specific Inhibitors of Vaccinia Orthopoxvirus: Venus Reporter Primary qHTS | Vaccinia virus Venus reporter expression, fluorescence | Potency, µM (doses to about 36.5 µM), for inactives: at the top dose activity change, negative = inhibition, most hits filed as inhibitors | 0.46% of 330,000 active; active means well fitted inhibition curve with a large enough effect; inconclusive means small, poorly fitted or top-dose-only effect; inactive means no such curve, though single readings can be large or run the other way; tested in A549 cells; further: nearly all actives have a fitted effect of over 30% in size; inactives centre near -10
VACV mCherry inh: qHTS for Stage-Specific Inhibitors of Vaccinia Orthopoxvirus: mCherry Reporter Primary qHTS | Vaccinia virus mCherry reporter infection, fluorescence; about a quarter of the inactives have no number | Potency, µM (series often up to 36.5 µM), for the others: at the highest dose activity change, negative = inhibition, actives largely listed as inhibitors | 0.63% of 310,000 active; active = well fitted inhibition curve with a large enough effect; inconclusive = small, poorly fitted or top-dose-only effect; inactive = no such curve, though single readings can be large or run the other way; tested in A549 cells; further: nearly all actives have a fitted effect of over 35% in size; inactives centre near -10
Active calls of the source: *; i = inactive; ? = inconclusive; nt = no result given; & = joins results of further samples; [ ] = remark or other dose. On the % scale 0 is the no-effect control and ±100 the full control effect; potency means the concentration at half of the fitted maximal effect.

SMILES	Vaccinia Venus	VACV mCherry inh
COc1ccc(NC(=S)NC2CCCCCC2)c(OC)c1	-4%	-22%
COC(=O)CC1N(S(=O)(=O)c2ccc(C)cc2)c2ccccc2C1(C(=O)OC)C(=O)OC (stereo not drawn)	-14%	-17%
O=C(CN(c1ccc(Cl)cc1)S(=O)(=O)c1ccc(Cl)c([N+](=O)[O-])c1)NCCc1ccc(F)cc1	-8%	?
O=C(Cn1cnc2c(NCc3ccccc3)ncnc21)NCc1ccccn1	-2%	i
CSc1ccc(S(=O)(=O)NCCSc2ccccn2)cc1	-7%	-20%
COc1ccc(C2CCCN2C(=S)Nc2cccc(C)c2C)cc1OC (stereo not drawn)	-6%	i
Nc1c(Cl)ncnc1Nc1ccc(C(=O)O)cc1	-5%	-13%
COC(=O)c1cc(NC(=O)c2ccccc2)c(=O)oc1C	-2%	i
NC1=NC(=O)C(Cc2ccccc2)S1 (stereo not drawn)	-3%	i
C=C1[C@H](C)CN[C@H]1CCO	?	-25%
CCOC(=O)c1cc(NC(=O)N(C)C2CCCCC2)c(C)nc1C	2%	-6%
O=C1NC(=O)C(CCc2ccncc2)(C2CCCCC2)C(=O)N1	-12%	-10%
Cc1ccc(Oc2ncccc2C(=O)NC2CCSC2=O)cc1 (stereo not drawn)	-6%	-4%
Cn1c(=NC(=O)C2CCCCC2)sc2cc([N+](=O)[O-])ccc21	-9%	-2%
CCCCCCCCN1C(=O)[C@H](CC(=O)N2CCCC2)C[C@@]2(C(=O)OC)CCCCC=C12	-22%	i
CC(NC(=O)c1ccco1)c1nnc2n1CCN(Cc1cccc(Cl)c1)CC2 (stereo not drawn)	10%	-1%
O=C(c1ccc(F)cc1F)N1CCCC(c2nc(-c3cccs3)no2)C1 (stereo not drawn)	-5%	-11%
CN(N)N=Nc1nc2c([nH]1)c(=O)n(C)c(=O)n2C	-2%	-9%
CCOC(=O)c1ccc(NC(=O)c2ncn3c2C(=O)NC[C@@H]3C)cc1	-21%	?
O=C(Nc1nnc(-c2ccco2)o1)C1CC1	-11%	-13%
COCCCNc1ncnc2nc[nH]c12	-11%	i
C=CCN1CC[C@]23c4c5ccc(O)c4OC2C(O)C=CC3[C@H]1C5 (stereo partly drawn)	-12%	-4%
c1ccc2nc(N3CCNCC3)ccc2c1	-7%&-7%&-5%	-4%
CCc1ccc(C(=O)C(C)OC(=O)Cc2n[nH]c(=O)c3ccccc23)cc1 (stereo not drawn)	-3%	-27%
COc1c(C)cc(S(=O)(=O)N2CCOCC2)c(C)c1C	-24%	-2%
COC(=O)C1=C(c2cc3ccccc3s2)C[C@@H]2CC[C@H]1N2C(=O)N1CCC(O)CC1	-25%	i
CCCNC(=O)c1cnc2sc(N3CCCCC3)nn2c1=O	-1%	5%
COc1cc2c(cc1OC)CN(CC(=O)NC(=O)NCc1ccco1)CC2	4%	-10%
Cc1cc(C(=O)CN2CC(C)OC(C)C2)c(C)n1-c1ccccc1 (stereo not drawn)	3%	i
CC1CCCCN1CC(=O)c1c[nH]c2ccccc12 (stereo not drawn)	-9%	-11%
CCCCOc1cccc(-c2cc(C(=O)NNC(=S)NCC)c3ccccc3n2)c1	-12%	-22%
O=C(O)c1ccc2nc(-c3cc4cc(F)ccc4oc3=O)[nH]c2c1	-6%	-2%
CC(C)(C)n1c(=O)[nH]c2c(c1=O)CCC2	-13%	nt
COc1ccccc1OCCC(=O)NCc1ccc2c(c1)OCO2	-1%	-10%
Cc1cccc(C(=O)NC(=O)Nc2c(C)cc(C)nc2C)c1	-12%	1%
O=C(NC(=S)Nc1ccc([N+](=O)[O-])cc1)c1ccco1	0%	-24%
CC(C)OC(=O)CC(=O)CSc1nc2c(cc1C#N)CCCCC2	-5%	-11%
c1ccc(OCc2nc(-c3ccccc3)no2)cc1	-5%	-11%
O=C(c1n[nH]c2ccccc12)N1CCCCC1	-13%	-6%
Cc1ccccc1-n1ccnc1SCC(=O)NCc1ccco1	9%	i
COc1cccc(C(=O)NCCS(=O)(=O)N2CCCC2)c1	-12%	-14%
Cc1cc(Cl)ccc1C(=O)C1CCCN(C(=O)c2cnsn2)C1 (stereo not drawn)	-12%	-3%
CCN1CCN(C(=O)Cc2c(C)n(C(=O)c3ccc(Cl)cc3)c3ccc(OC)cc23)CC1	-15%	i
Cc1cccc(C)c1NC(=O)C1(C)CCC(=O)N1CCc1c[nH]c2ccccc12 (stereo not drawn)	8%	17%
O=C(N/N=C/c1cccnc1)C1CCCCC1	-5%	i
C=CCn1cc(C(=O)NCc2cccnc2)c(=O)c2cc(S(=O)(=O)N(CC)CC)ccc21	-10%	-16%
Cc1ccc(NC(=O)c2c(C)nn(-c3ccccc3)c2-n2cccc2)c(Cl)c1	-8%	2%
COc1ccc(CCNCc2c(C(=O)O)c(C)n(Cc3c(F)cccc3Cl)c2C)cc1OC	4%	4%
Cc1noc(C)c1COc1cccc(C(=O)OC(C)C(=O)Nc2c(C)n(C)n(-c3ccccc3)c2=O)c1 (stereo not drawn)	-3%	-7%
COc1ccc(Cl)cc1NS(=O)(=O)c1cc(Br)cc2c1N(C(=O)C1CC1)CC2	-5%	-9%
COc1ccc(C2=NOC(C(=O)Nc3c(C)n(C)n(-c4ccccc4)c3=O)C2)cc1 (stereo not drawn)	-13%	-22%
O=C(c1ccco1)N(Cc1cccnc1)c1nc2c(F)cc(F)cc2s1	-4%	-11%
CCOc1ccc(CCNC(=O)COC(=O)c2sccc2C)cc1OCC	-17%	i
Cc1ccccc1Nc1sc(C(=O)Nc2cccc(Cl)c2)c(N)c1C(N)=O	5%	-18%
COc1ccc(NC(=O)CCN2CCN(S(=O)(=O)c3ccc(Cl)cc3)CC2)cc1	-4%	i
NS(=O)(=O)c1ccc(-c2ccc(/C=N/Nc3ccc(C(=O)O)cc3)o2)cc1	3%	-18%
COc1c(C(CC(C)C)OC(C)=O)ccc2c1C(=O)OCc1cc(C)cc(O)c1O2 (stereo not drawn)	-20%	-25%
O=C(CN1C(=O)NC2(CCCC2)C1=O)OCc1ccc(Cl)c(Cl)c1	-13%	-16%
COc1nc(-c2ccccc2)cc(-c2ccccc2)n1	-14%	nt
O=C1COc2cc(ccc2[N+](=O)[O-])Oc2ccc(cc2Cl)C(=O)CCCCO1	-5%	-4%

Next section.
SMILES	Vaccinia Venus	VACV mCherry inh
COc1ccc(C)cc1NC(=O)COC(=O)Cc1ccc(-c2ccccc2)cc1	0%	-11%
Cc1ccc(Cl)cc1N1CCN(C(=O)Cn2ncc3c([nH]c4ccccc43)c2=O)CC1	-11%	3%
CCOc1ccc(N2CC(C(=O)N3CCc4ccccc43)CC2=O)cc1 (stereo not drawn)	5%	71%[activator]
CCCC(=O)N=C1SC2CS(=O)(=O)CC2N1c1ccc(C(C)=O)cc1 (stereo not drawn)	-3%	nt
CCN1CCN(c2cc(C)c3cc(NC(=O)CCC(=O)N4CCN(c5ccccc5OC)CC4)ccc3n2)CC1	-23%	?
CCOc1ccc(CCNC(=O)COC(=O)c2c(C)nn(-c3ccccc3)c2C)cc1OCC	-9%	-5%
COCCNC(=O)Cn1cnc2c(cnn2-c2ccc(C)cc2)c1=O	-14%	-19%
COc1ccc(-c2c(-c3cc(OC)cc(OC)c3)n(C)c3ccc(-c4ccc(OC)c(F)c4)cc23)cc1	-3%	4%
CCOC(=O)N1CCN(C(=O)c2ccc(-c3ccccc3OC)nc2N2CCC(N3CCCC(CO)C3)CC2)CC1 (stereo not drawn)	-5%	-9%
CCCOC(=O)CSc1nnc(-c2ccccc2Cl)o1	3%	nt
CN(c1ccccc1)S(=O)(=O)c1ccc(Cl)c(C(=O)NCC(c2ccco2)N2CCCC2)c1 (stereo not drawn)	-25%	?
CSCCC(NS(=O)(=O)c1ccccc1F)C(=O)N1CC=C(c2ccccc2)CC1 (stereo not drawn)	-14%	i
O=C(c1ccc(N2CCN(C(=O)c3ccccc3)CC2)cc1)c1cccc(F)c1	1%	-8%
COc1ccc(/C=C(\C#N)c2nc3ccccc3c(=O)[nH]2)cc1OC	-3%	2%
COC(=O)C(CC(C)C)NC(=O)/C=C/c1ccccc1Cl (stereo not drawn)	-13%	-5%
CC(C)(C)C(=O)/C=C/Nc1ccccc1O	-5%	-10%
COCCCNC(=O)c1ccccc1C(F)(F)F	-5%	-13%
CCCCNS(=O)(=O)CCNCCc1ccccc1	0%	-3%
COC(=O)c1cc(=O)nc2sc3cc(OC)ccc3n12	-2%	-1%
Cc1ccc(NC(=O)C(C)c2cccc(C(=O)c3ccccc3)c2)cc1 (stereo not drawn)	-10%	i
Cc1ccc2ccc(C#N)cc2c1O	-7%	-20%
CC(C)NC(=O)C1(C)CCCN1Cc1csc2ccccc12 (stereo not drawn)	-8%	i
CC(C)C(NC(=O)c1ccccc1F)C(=O)NCc1ccc(F)cc1 (stereo not drawn)	7%	-5%
O=C(CCNC(=O)c1ccc(Br)cc1)NNC(=O)c1ccccc1	-20%	i

Among those listed so far, two contain a tert-butyl group:
SMILES	Vaccinia Venus	VACV mCherry inh
CC(C)(C)n1c(=O)[nH]c2c(c1=O)CCC2	-13%	nt
CC(C)(C)C(=O)/C=C/Nc1ccccc1O	-5%	-10%

Part of the list above in order of heavy-atom count, ascending.
SMILES	Vaccinia Venus	VACV mCherry inh
Cc1ccc2ccc(C#N)cc2c1O	-7%	-20%
CC(C)(C)C(=O)/C=C/Nc1ccccc1O	-5%	-10%
COC(=O)c1cc(=O)nc2sc3cc(OC)ccc3n12	-2%	-1%
COC(=O)C(CC(C)C)NC(=O)/C=C/c1ccccc1Cl (stereo not drawn)	-13%	-5%
CC(C)NC(=O)C1(C)CCCN1Cc1csc2ccccc12 (stereo not drawn)	-8%	i
O=C(CCNC(=O)c1ccc(Br)cc1)NNC(=O)c1ccccc1	-20%	i
COc1ccc(/C=C(\C#N)c2nc3ccccc3c(=O)[nH]2)cc1OC	-3%	2%

(next part)
SMILES	Vaccinia Venus	VACV mCherry inh
O=C(/C=C/c1ccccc1)c1ccc2c3c(cccc13)CC2	?	?
CC(NC(=O)COC(=O)c1cc(S(=O)(=O)N2CCOCC2)ccc1F)c1ccccc1 (stereo not drawn)	-16%	-5%
O=C(NCc1ccc(F)cc1)C(=O)NCC1OCCCN1S(=O)(=O)c1cccs1 (stereo not drawn)	-19%	-6%
Cc1ccc(NS(=O)(=O)c2cccc(C(=O)NNC(=O)c3ccco3)c2)c(C)c1	-25%	-7%
Cc1onc(-c2c(F)cccc2Cl)c1C(=O)Nc1cccc(S(=O)(=O)NCc2ccco2)c1	-11%	-17%
CNC[C@H]1Oc2ccc(NC(=O)Cc3cn(C)c4ccccc34)cc2CC(=O)N([C@@H](C)CO)C[C@H]1C	-18%	i
Nc1c(-c2cccc(Cl)c2)cnc2c(-c3ccccc3)cnn12	-7%	i
CC(C)c1ccc(OCC(O)CN2CCN(c3ccccc3)CC2)cc1 (stereo not drawn)	-10%&-27%	-18%&-9%
CC1(C)SC(=S)N(/N=C/c2ccccc2)C1N(O)C(=O)Nc1ccc([N+](=O)[O-])cc1 (stereo not drawn)	?	?
CN1/C(=C\C(=O)Nc2ccc(Br)cc2)C(C)(C)c2ccccc21	-20%	-4%
Cc1ccccc1NC(=O)Cn1c([N+](=O)[O-])cnc1C	-9%	i
CCCCc1ccc(Nc2cc(C)nc(-n3nc(C)cc3C)n2)cc1	-10%[7.34 µM]	-1%[7.34 µM]

Entries of single compounds, looked up by structure. Order of screens: Vaccinia Venus	VACV mCherry inh
Cc1onc(-c2c(F)cccc2Cl)c1C(=O)Nc1cccc(S(=O)(=O)NCc2ccco2)c1 as listed: -11%	-17%
CN1/C(=C\C(=O)Nc2ccc(Br)cc2)C(C)(C)c2ccccc21 as listed: -20%	-4%

The main list resumes; the 2 compounds before the break are reprinted first.
SMILES	Vaccinia Venus	VACV mCherry inh
Cc1ccccc1NC(=O)Cn1c([N+](=O)[O-])cnc1C	-9%	i
CCCCc1ccc(Nc2cc(C)nc(-n3nc(C)cc3C)n2)cc1	-10%[7.34 µM]	-1%[7.34 µM]
O=C(NCCc1c[nH]c2ccccc12)C(=O)NCC1CCCO1 (stereo not drawn)	-3%	-12%
O=C(COc1ccccc1C(=O)Nc1cccnc1)Nc1ccc(Br)cc1	-25%	-10%
CC(C)CCNC(=O)CN(C(=O)CCC(=O)Nc1nccs1)C1CCCCC1	-5%	-9%
CS(=O)(=O)Nc1ccc(C2=NN(S(C)(=O)=O)C(c3ccc4c(c3)OCO4)C2)cc1 (stereo not drawn)	-10%	i
O=S(=O)(NCc1nc2cccnc2n1Cc1ccccc1Cl)c1ccc(F)c(Cl)c1	-12%[7.34 µM]	-22%[7.34 µM]
COc1ccc(-c2csc(NCCn3c(C)nc4cc(C(F)(F)F)ccc43)n2)cc1	-17%	-4%
CCOC(=O)C(=O)NNc1ccc(C)cc1	-10%	18%
CCc1nnc(NC(=O)CSc2nc(SC)ns2)s1	-26%	-18%
CC(=O)NCCc1c[nH]c2ccc(OCC(O)CNC(C)(C)C)cc12 (stereo not drawn)	-21%	-20%
COc1ccc(CC(=O)Nc2sc3c(c2C(=O)Nc2cccc(Cl)c2)CCCCC3)cc1	?	-25%
